BJeLR viability = BJeLR cell viability loss; BJeLR (HRASV12) viability, CellTiter-Glo ATP luminescence, 48 h; reference of the scale not given here; inhibition, % (concentration not given with the values); 300,000 compounds, 0.17% hits; AID 1554;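 active = replicate mean above 50%; inconclusive = above 50% but judged a plate artefact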;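 also: 50 nL library stock added to about 25 µL; numbers are from one replicate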
PrP 5UTR inh = inhibition of PrP 5' UTR reporter expression. cell-based PrP 5' UTR mRNA reporter, plate reader. inhibition, % (no concentration beside the values). 340,000 compounds, 0.35% hits;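 active = every replicate at 50% or more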;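 also: 0 = median of the neutral control wells; tested in H4 reporter cells; numbers are from one replicate; inactives centre near -14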
Autofluor counter = flagged as autofluorescent in microsphere protease counterscreen; compound autofluorescence counterscreen, microsphere flow cytometry; stronger effect = higher value; fluorescence intensity (no concentration beside the values); 360,000 compounds, 3.1% hits;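 active = at least 3 SD above the mean of all compounds, about 16000 in these data; inconclusive = too few beads counted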;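 also: 100 nL of 1 mM stock went into each well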
Sa ugtP lethal = compounds lethal to S. aureus RN4220 ugtP deletion mutant. OD600 growth, 16 h; some inactives read as strong as hits. growth inhibition, % (concentration not given with the values). 330,000 compounds, 0.54% hits;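 active = z-score under -3 and OD600 up to 0.15 on both plates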;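 also: plate controls were untreated wells for no effect and antibiotic for full effect; wells of about 80 µL received 100 nL stock; the first replicate is given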
Mtb hypoxia rep = inhibitors of hypoxia-regulated fluorescent reporter in Mycobacterium tuberculosis; M. tuberculosis hypoxia-regulated fluorescent reporter, fluorescence; fluorescence inhibition, % (no concentration beside the values); 300,000 compounds, 0.1% hits;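 active = 35 to 45% if threefold the growth effect, above 45% if 1.5-fold the growth effect; inactive = the rest, general growth blockers included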;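 also: wells of about 50 µL received 100 nL stock; 0% = vehicle wells and 100% = reference inhibitor wells; whole bacteria with a GFP reporter of the hypoxia response; strong numbers were not always called active; many hits fall short of the cut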
RN4220 kill = S. aureus RN4220 growth inhibition; OD600, 16 h; 330,000 compounds, 0.33% hits; inhibition, % (test concentration not listed);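 active = z-score of -3 or lower and OD600 up to 0.18 on both plates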;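 also: plate controls were untreated cells for no effect and reference antibiotic for full effect; stock transfer was 100 nL into about 80 µL; one replicate is shown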
Mtb hypoxia rep growth = also measured in Mtb hypoxia rep; calls as there; growth inhibition, %; measured here: M. tuberculosis growth (absorbance);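 0% = vehicle and 100% = reference antibiotic; read after six days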
Active calls of the source: *; ? = inconclusive; . = no result given; & = joins results of further samples.

SMILES	BJeLR viability	PrP 5UTR inh	Autofluor counter	Sa ugtP lethal	Mtb hypoxia rep	Mtb hypoxia rep growth	RN4220 kill
COc1ccc(OC)c(NC(=O)C(C#N)=Cc2ccco2)c1	.	-32	3757	-5	4	-8	6.2
COc1ccc(-c2c(C)n([O-])c3c([n+]2=O)CCCC3)cc1OC	-2	.	.	-5	1	7	1.6
C=CCC(CC(=O)N(CCO)Cc1ccccc1)C(=O)NC(COC(=O)C(CC=C)CC(=O)OC(C)(C)C)Cc1c[nH]c2ccccc12 (configuration not stated)	.	.	.	-5&-1&9&-17&-36&-32	-9&-10&7&-3&-5&2	1&7&6&5&9&6	-1.5&-3.5&0.7&-3.4&-1.2&0.2
N#Cc1nc(-c2ccco2)oc1N1CCN(C(c2ccccc2)c2ccccc2)CC1	-3	-81	7233	-7	8	3	-1.7
Cc1nn(C)cc1CN(C)C(=O)c1nn2c(c1Br)NC(c1cccs1)CC2C(F)(F)F (configuration not stated)	-4	-9	4304	6	2	4	-3.8
COc1cccc(NC=C2C(=O)OC3(CCCCC3)OC2=O)c1	-2	-13	.	12	5	1	5.8
CC(Sc1nnc2c(n1)[nH]c1ccccc12)C(=O)NC1CCCCC1 (configuration not stated)	15	-1	4464	11	2	-6	5.5
Nc1cccc(C(=O)Nc2ccc3nc(-c4cccnc4)[nH]c3c2)c1	3	6	2450	-6	-13	5	-1.5
CCCc1nnc(NC(=O)NCCN2C(=O)C3C4C=CC(C4)C3C2=O)s1 (configuration not stated)	-5	-8	6195	-4	-4	1	-2.0
Cc1n[nH]c(=O)c2c(NC(=O)COC(=O)Cc3ccc(Cl)cc3Cl)oc(C)c12	-8	-6	5038	.	.	.	.
Cc1nn(C)c(C)c1NS(=O)(=O)c1ccc(Cl)cc1	3	-18	5982	3	9	5	3.7
CC1Cc2cc(S(=O)(=O)NCc3ccccc3)ccc2N1C(=O)C1CC1 (configuration not stated)	15	0	5233	.	.	.	.
CSCCC(NC(=O)c1cccc(C)c1)C(=O)OCC(=O)NC(=O)c1cccn1C (configuration not stated)	-5	-31	2100	2	-2	-4	2.9
Cc1c(C(=O)NCc2ccc3c(c2)OCO3)oc2ccc(Br)cc12	8	6	6227	24	1	9	-9.0
O=C(NCCc1ccccc1F)c1ccc2c(c1)OCCO2	-4	89*	5635	.	.	.	.
CCCc1nnc2c(N(C)S(=O)(=O)c3ccc(C)cc3)nc3ccccc3n12	-18	-34	2095	1	-1	1	4.6
O=[N+]([O-])c1ccc2nccn2c1	-14	10	24475*	4	1	-1	5.1
CCCC12CN3CCN(C1)CC(CCC)(C3)C2=O	-5	10	4575	4	19	4	2.9
CCOC(=O)c1nn(-c2ccc(F)cc2)c2nc(-c3ccccc3)c(C#N)c(=O)n12	1	-17	2170	4	-11	6	1.0
O=C(Nc1cc(C(F)(F)F)ccc1N1CCCC1)c1ccc2c(c1)OCO2	-17	7	8461	1	1	7	2.4
CCOC(=O)/C(C(N)=NCC(C)C)=C(/O)c1ccccc1	1	-11	3296	5	.	.	16
CCCCOC(=O)c1cc(=O)[nH]c2ccccc12	-7	-16	22271*	-4	15	7	6.0
COC(=O)c1ccccc1NC(=O)c1cccc(NC(=O)CSCc2ccccc2)c1C	2	-16	6464	-2	6	0	8.6
COC(=O)c1cncn1C(C)c1ccccc1 (configuration not stated)	12	-14	9917	2	5	10	-1.0
Cc1nc(NC(=O)/C=C/c2ccc(F)cc2)sc1C(=O)N(C)C	-14	-29	2573	10	-7	-7	0.4
FC(F)(F)c1cccc(-c2nnc3ccc(C(F)(F)F)cn23)c1	-2	-12	.	3	2	5	0.1
CC(=O)c1cccc(N2C(=O)C3C(C(=O)Nc4cc(C)on4)C4(C)C=CC3(O4)C2C(=O)NC(C)(C)C)c1 (configuration not stated)	-1	-4	4126	1	7	3	3.1
O=C(O)CCn1cc(-c2ccc(Cl)cc2)nc1-c1ccncc1	.	-6	2873	-10	9	15	4.8
CCNC(=O)OCC(CC)NC(=O)OCC(C)C (configuration not stated)	-11	-9	3294	-7	6	16	-5.0
O=S(=O)(c1ccc(SCCOc2ccc(F)cc2)nc1)N1CCCC1	.	-2	6231	4	-2	0	-1.2
O=C(CCN1CCN(c2ccc(F)cc2)CC1)Nc1ccc(F)cc1	3	-9	4828	3	.	.	-1.1
COCCN1C(=O)c2ccc(C(=O)O)cc2C1=O	-9	-19	?	-1	0	-2	1.1
CCOc1nc(NC(C)C)nc(N2CC3CC(C2)c2cccc(=O)n2C3)n1 (configuration not stated)	4	-12	2450	0	-8	-2	0.6
CCOC(=O)C1CCCCN1S(=O)(=O)c1ccc2c(c1)CC(C)N2C(=O)C1CCC1 (configuration not stated)	9	-2	5625	3	6	7	2.9
C=CCSc1nc2c(c(-c3ccsc3)c1C#N)CN(C)CC2	-2	-26	2810	4	0	-6	0.5
COc1ccc(C(CNC(=O)c2oc3ccc(OC)cc3c2C)N2CCCC2)cc1 (configuration not stated)	9	-10	7878	-7	-6	9	-2.5
CCC1=[N+]([O-])C(C)(C(C)=NO)N(O)C1(C)C (configuration not stated)	.	.	.	1	-5	1	2.0
COc1ccc(C(=O)NC(=S)Nc2ccc(S(=O)(=O)Nc3cc(OC)ncn3)cc2)cc1	-7	1	4344	-20	-7	-4	3.9
Cc1ccc(C(F)(F)F)cc1NC(N)=S	-8	-9	2505	-6	5	-1	6.5
O=C(NC(CO)(CO)CO)C1CCCN1S(=O)(=O)c1cccc2cccnc12 (configuration not stated)	.	.	.	-11	1	5	-4.1
CN(CC(=O)Nc1ccc(Cl)cc1)C(=O)CNC(=O)c1ccc(Br)o1	0	-10	6136	2	7	2	3.9
COC(=O)C(C)Sc1nc(N)c(NC(=O)c2ccco2)c(=O)[nH]1 (configuration not stated)	-17	-26	5945	-2	6	8	-11
O=C1c2ccccc2C(=O)N1CCC(O)C[N+](=O)[O-] (configuration not stated)	3	-25	4660	5	2	-4	0.3
CCOC(=O)C1(Cc2ccccc2)CCN(Cc2cc(=O)c3ccccc3[nH]2)CC1	3	-35	4945	0	-3	-3	6.8
Clc1ccc(-c2csc(N3CCc4ccccc4C3)n2)cc1	-22	-25	4263	52	.	.	-8.4
COc1cc(C(=O)NCCOc2cc(C)cc(C)c2)c(Br)c(OC)c1OC	12	-22	2812	9	.	.	-1.3
COc1ccc(-n2nc(C(N)=O)c(O)cc2=O)cc1	2	-38	4125	-3	-2	10	-1.1
Cc1cccc(OC2(c3ccccc3)OC(=O)c3ccccc32)c1C (configuration not stated)	12	.	11529	41	7	7	-4.0
Cc1ccc(N(Cc2cc3cccc(C)c3[nH]c2=O)S(=O)(=O)c2ccccc2)c(C)c1	-6	-19	5749	-8	6	2	7.4
COc1cccc(/C=N/NC(=O)c2ccoc2C)c1	-5	-72	3888	.	.	.	.
Cn1c(N)c(C(=O)COc2ccc(Cl)cc2Cl)c(=O)n(C)c1=O	.	-1	3257	-1	6	5	2.4
CN(CC(=O)Nc1ccc(F)cc1)C(=O)CSc1nccn1C	-2	-10	5800	5	3	2	2.0
CCOC(=O)C1CCN(c2nc3cc(OC)ccc3cc2C#N)CC1	2	-15	4925	4	.	.	15
O=C(CN1CCSCC1)NN=Cc1ccc(F)c(F)c1	.	.	.	-3	-2	-4	-3.2
COC(=O)CC1C(=O)NCCN1C(=S)Nc1cc(C)cc(C)c1 (configuration not stated)	-12	-6	8771	0	9	21	2.2
CCN=c1scc(-c2ccco2)n1/N=C/c1ccc(O)cc1	-1	-61	6195	.	.	.	.
COc1ccc(Oc2cccc(Cl)c2CNC(=O)c2ccccc2C(=O)O)cc1	-1	.	5220	3	2	-1	3.5
CC(C)CN(CC(C)C)C(=O)c1cc(S(=O)(=O)N2CCCCC2)c[nH]1	3	-6	5787	3	1	1	2.9
O=C(O)c1ccc(Cl)c(S(=O)(=O)Nc2ccc(OCc3ccccc3)cc2)c1	-3	-20	3216	4	-4	3	-3.3
N#CC1(Nc2cccc(Cl)c2)CCCC1	.	-21	4072	5	20	3	-0.1

Copied from the entries so far (13 entries):
SMILES	BJeLR viability	PrP 5UTR inh	Autofluor counter	Sa ugtP lethal	Mtb hypoxia rep	Mtb hypoxia rep growth	RN4220 kill
Cc1nc(NC(=O)/C=C/c2ccc(F)cc2)sc1C(=O)N(C)C	-14	-29	2573	10	-7	-7	0.4
FC(F)(F)c1cccc(-c2nnc3ccc(C(F)(F)F)cn23)c1	-2	-12	.	3	2	5	0.1
CC(=O)c1cccc(N2C(=O)C3C(C(=O)Nc4cc(C)on4)C4(C)C=CC3(O4)C2C(=O)NC(C)(C)C)c1 (configuration not stated)	-1	-4	4126	1	7	3	3.1
O=C(O)CCn1cc(-c2ccc(Cl)cc2)nc1-c1ccncc1	.	-6	2873	-10	9	15	4.8
CCNC(=O)OCC(CC)NC(=O)OCC(C)C (configuration not stated)	-11	-9	3294	-7	6	16	-5.0
O=S(=O)(c1ccc(SCCOc2ccc(F)cc2)nc1)N1CCCC1	.	-2	6231	4	-2	0	-1.2
O=C(CCN1CCN(c2ccc(F)cc2)CC1)Nc1ccc(F)cc1	3	-9	4828	3	.	.	-1.1
COCCN1C(=O)c2ccc(C(=O)O)cc2C1=O	-9	-19	?	-1	0	-2	1.1
CCOc1nc(NC(C)C)nc(N2CC3CC(C2)c2cccc(=O)n2C3)n1 (configuration not stated)	4	-12	2450	0	-8	-2	0.6
CCOC(=O)C1CCCCN1S(=O)(=O)c1ccc2c(c1)CC(C)N2C(=O)C1CCC1 (configuration not stated)	9	-2	5625	3	6	7	2.9
C=CCSc1nc2c(c(-c3ccsc3)c1C#N)CN(C)CC2	-2	-26	2810	4	0	-6	0.5
COc1ccc(C(CNC(=O)c2oc3ccc(OC)cc3c2C)N2CCCC2)cc1 (configuration not stated)	9	-10	7878	-7	-6	9	-2.5
CCC1=[N+]([O-])C(C)(C(C)=NO)N(O)C1(C)C (configuration not stated)	.	.	.	1	-5	1	2.0

The list goes on:
SMILES	BJeLR viability	PrP 5UTR inh	Autofluor counter	Sa ugtP lethal	Mtb hypoxia rep	Mtb hypoxia rep growth	RN4220 kill
Cc1c([N+](=O)[O-])c(C/C=N/O)nn1C	-11	-8	3732	.	.	.	.
O=C(NCc1ccc(F)cc1)c1cccc(S(=O)(=O)N2CCOCC2)c1	.	-4	3778	6	6	1	6.6
CCOc1ccccc1NC(=O)C1C2CCC3C(CCC21)C3(Cl)Cl (configuration not stated)	17	-15	2088	-5	-3	5	2.8
CN(C)CCCOC(=O)c1cc2ccccc2o1	-2	-9	3226	-10	-2	10	-2.2
CCOC(=O)c1sc(=S)n(-c2ccccc2)c1C	1	.	5824	7	10	15	4.7
CCOCCCN(C(=O)c1snc(C(N)=O)c1N)C(C(=O)NC1CCCC1)c1ccc(F)cc1 (configuration not stated)	2	-7	6288	3	-8	4	3.2
COCCn1c(=S)[nH]c2ncccc2c1=O	-15	-11	8373	3	0	-3	4.7
COc1ccccc1CNC(=O)C1CCCCN1S(=O)(=O)c1ccccc1 (configuration not stated)	-5	-1	2981	5	8	4	4.2
CCCCc1nnc(NC(=O)CSc2nc(O)c(-c3ccccc3)c(=O)[nH]2)s1	3	-25	2491	10	0	5	2.2
CCCc1cc(=O)[nH]c(SCc2nc3ccccc3s2)n1	-3	-9	19993*	-14	3	5	15
COC(=O)c1ccc(Cn2nnc3c(=O)[nH]c(C4CCCN(S(=O)(=O)c5ccc(C)cc5)C4)nc32)cc1 (configuration not stated)	-1	-7	5863	3	-3	-10	2.6
O=C(NC1CCCCCC1)c1ccc(=O)n(Cc2ccccc2)n1	0	-38	4633	3	-3	5	-0.2
COc1ccc(N(C(=O)c2cccnc2)S(=O)(=O)c2cc(OC)ccc2OC)cc1	9	-10	5685	6	3	9	2.7
Cc1onc(-c2c(F)cccc2Cl)c1C(=O)N1CCCC1	.	-13	4629	3	-1	1	3.7

Screening data (PubChem BioAssay)
